High-throughput results as filed in PubChem.
BJeLR lethal = BJeLR cell viability loss; BJeLR (HRASV12) viability, CellTiter-Glo ATP luminescence, 48 h; reference of the scale not given here; inhibition, % (test concentration not listed); hit rate 0.17% among 300,000;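 active = replicate mean above 50%; inconclusive = above 50% but judged a plate artefact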;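 note: 50 nL library stock added to about 25 µL; numbers are from one replicate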
Mtb hypoxia rep = inhibitors of hypoxia-regulated fluorescent reporter in Mycobacterium tuberculosis | M. tuberculosis hypoxia-regulated fluorescent reporter, fluorescence | fluorescence inhibition, % (concentration not given with the values) | hit rate 0.1% among 300,000;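 active = 35 to 45% if threefold the growth effect, above 45% if 1.5-fold the growth effect; inactive = the rest, general growth blockers included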;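 note: wells of about 50 µL received 100 nL stock; 0% = vehicle wells and 100% = reference inhibitor wells; whole bacteria with a GFP reporter of the hypoxia response; strong numbers were not always called active; many hits fall short of the cut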
RN4220 kill = S. aureus RN4220 growth inhibition; inhibition, % (test concentration not listed); AID 1259311; OD600, 16 h; hit rate 0.33% among 330,000;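 active = z-score of -3 or lower and OD600 up to 0.18 on both plates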;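 note: plate controls were untreated cells for no effect and reference antibiotic for full effect; stock transfer was 100 nL into about 80 µL; one replicate is shown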
PrP UTR inh = suppresses PrP 5' UTR mRNA reporter expression | cell-based PrP 5' UTR mRNA reporter, plate reader | inhibition, % (test concentration not listed) | hit rate 0.35% among 340,000 | AID 488862;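 active = every replicate at 50% or more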;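 note: 0 = median of the neutral control wells; tested in H4 reporter cells; numbers are from one replicate; inactives centre near -14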
Bead autofluor = compound fluorescence in toxin protease inhibitor counterscreen. compound autofluorescence counterscreen, microsphere flow cytometry; stronger effect = higher value. fluorescence intensity (no concentration beside the values). hit rate 3.1% among 360,000. AID 624483;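 active = at least 3 SD above the mean of all compounds, about 16000 in these data; inconclusive = too few beads counted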;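 note: 100 nL of 1 mM stock went into each well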
ugtP null kill = growth inhibition of S. aureus ugtP deletion strain; S. aureus RN4220 ugtP deletion, OD600 growth, 16 h; some inactives read as strong as hits; growth inhibition, % (concentration not given with the values); hit rate 0.54% among 330,000; AID 1259309;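 active = z-score under -3 and OD600 up to 0.15 on both plates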;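 note: plate controls were untreated wells for no effect and antibiotic for full effect; wells of about 80 µL received 100 nL stock; the first replicate is given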
Mtb hypoxia rep growth = recorded beside Mtb hypoxia rep, whose call it bears; growth inhibition, %; measured here: M. tuberculosis growth (absorbance);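 0% = vehicle and 100% = reference antibiotic; read after six days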
The depositor's hits bear a star; ? = inconclusive; nt = no result given. The order is random. Share with any hit: about 3.9%.

Values run as follows: Mtb hypoxia rep growth	Mtb hypoxia rep	PrP UTR inh	BJeLR lethal	RN4220 kill	ugtP null kill	Bead autofluor
- COc1ccc(Cl)cc1N(CC(=O)N1CCC(C)CC1)S(C)(=O)=O
  10	16	-15	-21	6.3	13	3326
- CCN(CC)CCn1c(NCc2ccco2)nc2ccccc21
  5	8	-55	9	2.5	-3	21505*
- CCN(CC)C(=O)CSc1nnc(-c2cccnc2)n1Cc1ccccc1
  3	0	-13	0	2.9	2	4761
- Clc1ccc(CSc2ccc(-c3ccco3)nn2)cc1
  5	5	-34	0	5.3	1	3830
- O=C1CCC(CCC(=O)N2CCCC(C(=O)c3ccc4c5c(cccc35)CC4)C2)=NN1 (stereo not given)
  2	13	-21	6	7.4	-2	2105
- O=C(COC(=O)c1ccccc1F)NC1CCCC1
  3	13	-15	-6	4.4	13	3635
- Cc1c(C(=O)NCc2ccccc2)oc2c1C(=O)CCC2
  -11	-14	-10	1	3.1	4	2612
- CCN1C(=O)N[C@@H](c2ccco2)C(C(C)=O)=C1C
  nt	nt	-20	-2	nt	nt	4009
- CCn1c(=O)cc(SCC(=O)Nc2ccc(Cl)cc2)c2ccccc21
  -5	-4	-3	-5	6.6	-8	6072
- Cc1cccc(CCNCc2cc3cc(C)cc(C)c3[nH]c2=O)c1
  6	15	-24	2	1.9	5	3949
- COc1ccc([C@@H]2OC2(C(N)=O)C(N)=O)cc1
  14	10	-14	8	2.8	4	3442
- Nc1cc(=O)[nH]c(SCC(=O)Nc2cccc([N+](=O)[O-])c2)n1
  6	13	-9	4	5.4	3	6013
- FC(F)Oc1ccc(NC(=S)NNc2ccnc3cc(Cl)ccc23)cc1
  -2	4	-23	0	5.4	21	4076
- CCOc1cc2[nH]c(=S)n(CCCOC)c(=O)c2cc1OCC
  7	7	-2	-3	4.4	21	8126
- COc1ccccc1NC(=O)c1ccccc1NC(=O)c1ccccn1
  -5	-3	-5	nt	3.2	9	3957
- CCOc1ccc(-c2cc(C(=O)N/N=C(\C)c3cccnc3)c3ccccc3n2)c(OCC)c1
  nt	nt	-13	0	nt	nt	5990
- Cc1ccc2nc(C)c(C(=O)NN=Cc3ccc(N4CCOCC4)cc3)cc2c1
  -2	15	nt	nt	16	-1	nt
- O=C1CC(c2ccccc2)CN1C(=O)c1cccc([N+](=O)[O-])c1 (stereo not given)
  3	3	-17	-15	4.0	2	2013
- Cc1sc2ncn(CC(=O)Nc3ccccc3F)c(=O)c2c1-c1ccccc1
  7	6	-31	16	21	3	5096
- CCCCC1CCC(C(=O)N(CCOC)c2c(N)n(CC(C)C)c(=O)[nH]c2=O)CC1 (stereo not given)
  -10	1	-3	nt	-0.9	-2	3573
- Cc1ccc(NC(=S)N(CCN(C)C)Cc2cc3cc(C)ccc3[nH]c2=O)cc1
  8	-10	-20	-1	8.6	6	3181
- CCCC=NNC(=O)c1[nH]c2c([N+](=O)[O-])cccc2c1C
  9	-12	nt	nt	-3.2	0	nt
- Nc1ccc2nc(COc3ccccc3)[nH]c2c1
  8	-1	11	-2	2.6	-2	4298
- O=C(COC(=O)c1cc2ccccc2cc1O)NC(=O)NCc1ccco1
  6	13	-26	-1	8.2	0	4683
- O=C(c1cc(=O)c2cc(Cl)ccc2o1)N1CCN(Cc2ccccc2)CC1
  7	4	-1	6	-0.7	10	3640
- COc1ccc(C(CCN2CCN(c3ccccc3)CC2)c2c(OC)cc(OC)c3c(-c4ccccc4)cc(=O)oc23)cc1 (stereo not given)
  2	-7	-20	-5	16	4	4236
- CCOc1cc(NC(=S)NCCCN2CCOCC2)c(OCC)cc1NC(=O)c1cccs1
  -3	-8	-19	6	-2.2	20	4351
- O=C(Cn1cnc2sc(-c3ccccc3)cc2c1=O)NCc1ccccc1
  15	17	-42	1	4.0	5	9905
- CCOC(=O)C1CCN(C(=O)c2ccc(S(=O)(=O)Nc3ccccc3Cl)cc2)CC1
  0	1	3	nt	7.6	9	nt
- COc1ccc(CN2CC(C(=O)NCc3ccc4c(c3)OCO4)CC2=O)cc1 (stereo not given)
  4	5	-27	-2	-1.8	0	10192
- Cn1c(=O)c(=O)n(C)c2cc(S(=O)(=O)NCCOc3ccccc3)ccc21
  10	-6	-11	-4	-1.6	-2	4492
- OCCOCCN1CCN(C(=S)Nc2ccccc2)CC1
  6	3	-4	0	0.6	4	3300
- CCc1cc(=O)oc2c(C)c(OCC(=O)NCC3CCC(C(=O)O)CC3)ccc12 (stereo not given)
  nt	nt	13	-5	6.2	-5	4047
- O=C(CSc1nc2[nH]c(=O)cc(O)c2s1)Nc1cc(Cl)cc(Cl)c1
  1	5	-13	2	9.4	-8	3964
- COc1ccccc1C1CC(=O)Oc2cc(O)ccc21 (stereo not given)
  1	-6	-7	nt	2.6	3	3714
- COc1ccc(C(=O)N2CCN(C(=O)c3cc(OC)c(OC)c(OC)c3)CC2)cc1
  nt	nt	-8	-3	0.0	7	4098
- COc1ccc(OCC(=O)N2CCc3ccccc3C2)cc1
  6	1	-47	-1	5.6	7	4235
- O=C(Nc1ccccc1)c1ccc(CN2CCC(Cc3ccccc3)CC2)cc1
  -2	15	-17	3	3.7	4	2465
- COc1ccc(C(=O)Nn2cnc3scc(-c4cccs4)c3c2=O)c(O)c1
  11	6	7	-2	0.7	-1	4455
- COC(=O)[C@@]1(Cc2ccc(F)cc2)C2c3cc(C(=O)N(C)C)[nH]c3CC2CN1C(=O)c1ccccc1 (stereo not given in full)
  0	6	nt	nt	1.9	-8	nt
- CC(NC(=O)COC(=O)c1ccccc1F)C1CC2CCC1C2 (stereo not given)
  44	20	-14	nt	0.4	2	3837
- O=C(CN(c1ccc(F)cc1)S(=O)(=O)c1ccc2c(c1)OCCO2)Nc1ccccc1
  2	16	-21	-3	7.0	12	?
- CCCCc1nnc2c(N(C)S(=O)(=O)c3ccc(C)cc3)nc3ccccc3n12
  -1	11	-23	1	2.0	8	3999
- Cc1ccccc1OCC(=O)OCC(=O)Nc1ccc2c(c1)OCCO2
  -5	1	-7	nt	2.1	6	2968
- Cc1ccc(Cn2nc(C)c(/C=N/NC(=O)c3cccnc3)c2C)cc1
  nt	nt	-1	3	nt	nt	4990
- CC(C)OC(=O)CSc1nc2c(cc1C#N)CCCCC2
  7	14	-49	1	4.8	0	3265
- CC(C)c1ccc2c(c1)C1Cc3ccccc3C1N2 (stereo not given)
  5	7	-68	-2	0.3	36	3784
- Cc1ccc2c(CN3CCN(S(=O)(=O)c4ccccc4C(F)(F)F)CC3)cc(=O)oc2c1C
  0	-11	4	nt	6.5	9	nt
- O=C(Nc1ccc(O)cc1)c1ccccc1OCc1ccccc1
  4	1	-31	14	3.2	-6	4835
- O=C(Oc1cccc2cccnc12)c1ccc2c(c1)OCCO2
  3	6	-16	-1	4.3	8	3714
- O=C(N/N=C/c1ccc2cccc(OCc3ccccc3)c2n1)c1ccc(Br)cc1
  nt	nt	-26	5	nt	nt	3684
- COc1ccc(N2C(=O)CCC2(C#N)c2ccc(Br)cc2)cc1 (stereo not given)
  9	-2	-25	1	0.5	-1	5328
- O=c1c2ccccc2[nH]c(=S)n1-c1cccnc1
  7	3	nt	-3	12	4	nt
- Cc1ccc2[nH]c3c(Cl)ncnc3c2c1
  0	3	-17	-7	2.1	-3	nt
- Cc1ccc(NC2(C(N)=O)CCCC2)cc1
  7	10	-31	nt	6.6	5	2854
- O=C(Cc1ccccc1)NCCSCc1ccccc1
  8	9	-31	1	1.0	1	2576
- O=C(CSc1nnc(-c2ccncc2)n1Cc1ccco1)Nc1cccc(O)c1
  2	4	-24	2	2.4	8	5162
- O=C(Nn1cc(C(=O)Nc2ccccc2F)c2ccccc2c1=O)c1cnccn1
  8	-4	-8	7	-2.0	3	4973
- CCCC=NNc1nc2ccccc2s1
  2	-3	nt	nt	2.0	-6	nt
- COc1ccc(/C=C/C(=O)N(C)C2(C)CCS(=O)(=O)C2)cc1 (stereo not given)
  13	0	-3	4	1.6	1	6176

2 entries from above, set out differently.
SMILES	Mtb hypoxia rep growth	Mtb hypoxia rep	PrP UTR inh	BJeLR lethal	RN4220 kill	ugtP null kill	Bead autofluor
Cc1ccc(Cn2nc(C)c(/C=N/NC(=O)c3cccnc3)c2C)cc1	nt	nt	-1	3	nt	nt	4990
CC(C)OC(=O)CSc1nc2c(cc1C#N)CCCCC2	7	14	-49	1	4.8	0	3265

(continued)
Values run as follows: Mtb hypoxia rep growth	Mtb hypoxia rep	PrP UTR inh	BJeLR lethal	RN4220 kill	ugtP null kill	Bead autofluor
- NNC(=O)c1cc2c(ccc3ccccc32)o1
  3	6	-30	11	0.0	-2	3213
- O=C(CN1CCN(Cc2ccc(F)cc2)C1=O)NCc1cccs1
  9	11	6	14	1.0	11	5739
- C=CCn1cc(C(=O)NCCCOC)c(=O)c2cc(S(=O)(=O)N3CCC(C)CC3)ccc21
  nt	nt	-45	nt	3.2	3	5585
- N#C/C(=C\c1cccc(Br)c1)C(=O)N1CCCCC1
  8	8	-14	-2	6.5	-8	5298
- COc1cc(C2C3=C(CCCC3=O)Nc3[nH]n(-c4ccccc4)c(=O)c32)ccc1OC(C)=O (stereo not given)
  15	12	-23	4	5.3	3	2631
- CCCn1c(SCCN2CCOCC2)nc2c1c(=O)n(C)c(=O)n2C
  -2	-3	-6	3	4.3	3	3886
- Cc1nn(-c2ccccc2)c(Cl)c1C=NNc1nnc(C)c(=O)[nH]1
  -3	-3	nt	nt	5.3	-8	nt
- CC1CCN(C(=O)COC(=O)CCCN2C(=O)c3cccc4cccc(c34)C2=O)CC1
  7	3	-9	2	-6.3	6	5784
- CC(C)C12CN3CCN(CC(C3)/C1=N\O)C2
  nt	nt	-20	1	nt	nt	10979
- O=C1CC(c2cccc(Cl)c2)Cc2nc(N3CCOCC3)ncc21 (stereo not given)
  nt	nt	-9	-9	2.5	2	4847
- CCn1nc(NC(=O)c2ccco2)c2cc3ccc(C)cc3nc21
  7	10	-17	2	3.8	-14	2943
- O=C(COC(=O)CN1C(=O)NC2(CCCC2)C1=O)Nc1ccccc1C(F)(F)F
  5	3	-21	1	3.6	3	15096
- C/C=N/NC(=O)CCNC(=O)c1ccccc1
  nt	nt	-93	-2	nt	nt	2199
- COc1ccc(/C=N\NC(=O)c2ccccc2F)cc1COc1ccc(F)cc1
  nt	nt	-19	14	nt	nt	4331
- C/C=C/C(=O)OCC(=O)Nc1ccc(SC(F)F)cc1
  9	18	-12	5	0.5	6	3901
- COc1ccc(Cl)cc1C(=O)NNC(=O)c1nn(C)c(=O)c2ccccc12
  0	-7	-16	nt	0.8	1	?
- CCn1cc(C(=O)NCCc2ccccc2)c(=O)c2cc(S(=O)(=O)N(C)C)ccc21
  7	4	-3	2	1.0	1	3863
- COc1ccc(-n2nc(C(=O)NCC(=O)N3CCN(C)CC3)c3ccccc3c2=O)cc1
  5	14	-22	-2	2.4	8	3770
